Screening results: PubChem, National Center for Advancing Translational Sciences (NCATS)
HSD17B inhib = qHTS Assay for Inhibitors of HSD17B4, hydroxysteroid (17-beta) dehydrogenase 4 | 3-hydroxyacyl-CoA dehydrogenase type-2 (Homo sapiens), Q99714 | recombinant HSD17B10, NADH fluorescence kinetic; many of its hits are not listed in these tables | Potency, µM (doses to about 57.1 µM), inactives show at the top dose activity change, negative = inhibition, most hits filed as inhibitors | hit rate 7.6% among 75,000 | AID 893, 2007; active = well fitted inhibition curve with a large enough effect; inconclusive = small, poorly fitted or top-dose-only effect; inactive = no such curve, though single readings can be large or run the other way;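 note: the protocol describes HADH2 (HSD17B10) and not the HSD17B4 of the title; nearly all actives have a fitted effect of over 70% in size; most hits overshoot -100% by far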
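Activity followed as NADH fluorescence increase (ex 360, em 450 nm) every 30 seconds for 4 min, using final 90 uM beta-hydroxybutyryl CoA and 1 mM NAD+. Recombinant His-tagged enzyme, 20 nM, pH 9.0 Tris buffer, 15 min compound preincubation.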
The depositor's hits bear a star; [ ] = remark or other dose. % is set by controls: 0 for no effect and ±100 for the full control effect; potency is the fitted concentration of half-maximal effect.

`CCOC(=O)N1CCN(Cc2nc3c(c(=O)n(C)c(=O)n3C)n2Cc2cccc3ccccc23)CC1` gave HSD17B inhib -5%.
Screening CCC(=O)Nc1c2c(nc3c1CCC3)CCCC2 returned HSD17B inhib 4%.
Screening O=C(NC1CCCCCC1)C1CC(=O)N(Cc2ccccc2)C1 (stereo unspecified) returned HSD17B inhib 7%.
COc1ccc(N2CCn3c2nc2c3c(=O)n(CCCc3ccccc3)c(=O)n2C)cc1 was read as HSD17B inhib 4%.
COc1ccccc1N(C(=O)NCc1ccccc1)C1=NCC(C)S1 (stereo unspecified) was read as HSD17B inhib -9%.
Screening O=c1[nH]c2cc3c(cc2cc1C(c1nnnn1C1CCCC1)N1CCSCC1)OCCO3 (stereo unspecified) returned HSD17B inhib 20µM*.
CCCc1cc(=O)oc2cc(OCC(=O)N(C)C)c(Cl)cc12 was read as HSD17B inhib -19%.
For COc1nc(OC)nc(N2CCC(C(=O)NCC3CCCCC3)CC2)n1 the results were HSD17B inhib 10%.
Screening CC1CCN(C(=O)CSc2nnc(-c3cc4ccccc4cc3O)n2Cc2ccco2)CC1 returned HSD17B inhib -24%.
`COc1ccc(-n2c(Cc3cccn3C)nnc2SCC(=O)Nc2ccc(C)cc2C)cc1` gave HSD17B inhib 3%.
For CN(CCc1ccccn1)C(=O)CCNC(=O)Cn1cnc2ccccc2c1=O the results were HSD17B inhib 3%.
Screening O=C(c1ccncc1)N1CCN(C(=O)c2cccc3ccccc23)CC1 returned HSD17B inhib 6%.
`C=C(C)Cn1c(Sc2nc3ccccc3[nH]2)nc2c1c(=O)[nH]c(=O)n2C` gave HSD17B inhib -5%.
Screening CCC(=O)Nc1ccc(NC(=O)CN2CCCC(C)C2)c(Cl)c1 (stereo unspecified) returned HSD17B inhib -3%.
For CC1C2C(C)N(C)C(=O)N(C)C2N(C)C(=O)N1C (stereo unspecified) the results were HSD17B inhib -1%.
For CN(CC(=O)NCc1ccccn1)S(=O)(=O)c1ccc(Cl)cc1 the results were HSD17B inhib -6%.
`CC1=C(C)C(=O)C(CCCCC#CCCCC#CCO)=C(C)C1=O` gave HSD17B inhib -10%.
For Cc1cc2cc(CN(CCCO)S(=O)(=O)c3cccc4nsnc34)c(=O)[nH]c2cc1C the results were HSD17B inhib -5%.
O=C(NCc1cccnc1)c1cccc2c1C(=O)N(C1CCCCC1)C2 was read as HSD17B inhib -4%.
O=S(=O)(NC1CCN(Cc2ccccc2)CC1)c1cccc(S(=O)(=O)N2CCOCC2)c1 was read as HSD17B inhib 4%.
Screening O=C(CN(Cc1ccco1)C(=O)CNS(=O)(=O)c1ccccc1)NCc1ccccc1 returned HSD17B inhib -5%.
COc1ccccc1-n1c(SCC(=O)NC(C)(C)C)nc(O)cc1=O was read as HSD17B inhib -9%.
For CCOC(=O)c1nnc2cc(-c3ccccc3)nn2c1C the results were HSD17B inhib -6%.
For CCOC(=O)N1CCN(S(=O)(=O)c2cc(Br)cc3c2N(C(C)=O)C(C)C3)CC1 (stereo unspecified) the results were HSD17B inhib 2%.
`C=CCn1c(SCC2=C(C(=O)OCC)C(C)NC(=O)N2)nnc1C1CCCCC1` (stereo unspecified) gave HSD17B inhib 16%.
Screening CCCCCOC(=O)C1=C(C)NC(=O)NC1c1ccccc1OCC (stereo unspecified) returned HSD17B inhib -1%.
Screening CC(C)NC(=O)NC(=O)COC(=O)Cc1ccsc1 returned HSD17B inhib 10%.
Screening CCOC(=O)C1CCN(C(=O)CSc2ccccc2)CC1 returned HSD17B inhib -5%.
For O=P(c1ccc2c(c1)OCCO2)(N1CCOCC1)N1CCOCC1 the results were HSD17B inhib 10%.
For O=C(C1CCCN(S(=O)(=O)c2cccc3nsnc23)C1)N1CC=C(c2ccccc2)CC1 (stereo unspecified) the results were HSD17B inhib 13%.
For C[C@@H]1CC[C@H]2C(=O)NC[C@@H](O)CN2[C@@H]1c1ccc(Br)cc1 the results were HSD17B inhib 7%[11.4 µM].
For CN(C(=O)CSc1nnc(NC2CCCCC2)s1)C1CCS(=O)(=O)C1 (stereo unspecified) the results were HSD17B inhib -3%.
Screening Cc1cc(Cl)cc(C)c1OCCCCN1CCOCC1 returned HSD17B inhib 2%.
O=C(CSc1ncc(-c2ccc(F)cc2)n1Cc1ccco1)Nc1nccs1 was read as HSD17B inhib 0%.
Screening CCN(CCCNC(=O)CNC(=O)Cn1cnc2ccccc2c1=O)c1cccc(C)c1 returned HSD17B inhib 1%.
CCN(CC)CCCNC(=O)c1cc(-c2ccc(Cl)c(Cl)c2)on1 was read as HSD17B inhib -4%.
CC(C)OC(=O)CSc1ncnc2c1cnn2-c1ccccc1 was read as HSD17B inhib inconclusive.
For CCN(CC)c1ccc(NC(=O)CN2CCN(c3ccc(F)cc3)CC2)cc1 the results were HSD17B inhib 2%.
Screening N#Cc1c(N)n[nH]c1-c1cc2c([nH]1)CCCC2 returned HSD17B inhib -11%.
CCCOc1ccc(Br)cc1-c1cc(-c2ccc(Cl)cc2)[nH]c1-c1ccncc1 was read as HSD17B inhib 3.2µM*.
Screening O=C(Nc1cccc2cccnc12)c1ccc(Br)o1 returned HSD17B inhib -4%.
CC(=O)Nc1nc(CCC(C)C)cc2c1c(=O)oc1ccccc12 was read as HSD17B inhib -29%.
Screening Cc1cccc(NC(=O)CCN2CCOCC2)c1 returned HSD17B inhib 9%.
Screening CCOC(=O)Nc1sc2c(c1C#N)CCC(C)C2 (stereo unspecified) returned HSD17B inhib -5%.
For CCOc1nc(S(=O)(=O)c2ccc(C)cc2)c(Cl)s1 the results were HSD17B inhib 7%.
[O-][n+]1onc2c1CCc1c-2nn(-c2ccccc2Cl)[n+]1[O-] was read as HSD17B inhib -10%.
`CC(=O)N1CCCc2cc(S(=O)(=O)NC(C(=O)NCc3ccc(C)cc3)C(C)C)ccc21` (stereo unspecified) gave HSD17B inhib 9%.
`COc1cc(S(=O)(=O)NC2CCCCC2)ccc1Cl` gave HSD17B inhib -3%.
Screening CCc1nnc(NC(=O)c2cnccn2)s1 returned HSD17B inhib 0%.
Screening COc1cc2c(C(=O)NCCCN3CC(C)CC(C)C3)cn(CC(C)C)c(=O)c2cc1OC (stereo unspecified) returned HSD17B inhib 2%.
CCN(CC)CCNC(=O)Cn1nc(-c2ccccc2)c2ccccc2c1=O was read as HSD17B inhib 13%.
`CCn1c(C)nc2c(=O)oc3ccccc3c21` gave HSD17B inhib -1%.
Screening Cc1noc(C)c1COc1cccc(C(=O)OCCOc2ccc(F)cc2)c1 returned HSD17B inhib -11%.
For CC(=O)N1CCN(c2ccc(NCc3cccs3)cc2)CC1 the results were HSD17B inhib -9%.
COc1cccc(C2N(c3cccc(Cl)c3)C(=O)C3CCCN32)c1 (stereo unspecified) was read as HSD17B inhib 4%.
Cn1c(=O)c2c(nc(CN3CCC(Cc4ccccc4)CC3)n2CCN2CCOCC2)n(C)c1=O was read as HSD17B inhib 2%.
`Cc1c(C(=O)NCc2cccnc2)oc2ccccc12` gave HSD17B inhib 0%.
O=C(O)CCCCCNS(=O)(=O)c1ccc(Cl)cc1 was read as HSD17B inhib 4%.
Screening COC(=O)[C@H](Cc1ccccc1)NC(=O)C/C=C\[C@@H](C)[C@@H](CO)OC returned HSD17B inhib 2%[11.4 µM].
Screening O=C(c1csnn1)N1CCC2(CC1)CN(c1ccccn1)C2 returned HSD17B inhib 32µM*.
For CCCC(=O)c1cc(F)c(N2CCOCC2)cc1C the results were HSD17B inhib 5%.
CC1=C(C(N)=O)C(c2ccco2)C(C(N)=O)=C(C)N1 was read as HSD17B inhib 10%.
For N#Cc1nc(COc2ccc(Cl)cc2)oc1NCc1ccc2c(c1)OCO2 the results were HSD17B inhib 2%.
Screening CC(=O)NC(Cc1c[nH]c2ccccc12)C(=O)OCC(=O)Nc1cc(C)on1 (stereo unspecified) returned HSD17B inhib 21%.
CCn1c(COc2cccc3ccccc23)nnc1SCC(N)=O was read as HSD17B inhib 0%.
`CC(C)CN(C(=O)COC(=O)Cn1cnc2ccccc2c1=O)C1CCS(=O)(=O)C1` (stereo unspecified) gave HSD17B inhib 4%.
COc1ccc(Cl)cc1N(C)C(=O)CCc1nc(-c2ccc(C)cc2)no1 was read as HSD17B inhib -9%.
For CCSc1nnc(NC(=O)CSc2nnc(Cc3cccn3C)n2-c2ccc(F)cc2)s1 the results were HSD17B inhib inconclusive.
N[C@@H](C(=O)O)c1ccc(C(=O)O)c(O)c1 was read as HSD17B inhib 32µM*.
Screening Cc1noc(C)c1S(=O)(=O)N1CCCC(C(=O)Nc2cccnc2)C1 (stereo unspecified) returned HSD17B inhib 1%.
For CC(=O)N1CCc2cc(Br)cc(S(=O)(=O)NCCN3CCCCC3C)c21 (stereo unspecified) the results were HSD17B inhib 12%.
For Cc1cccc(NC(=O)C2CCN(S(=O)(=O)c3cccc4cccnc34)CC2)c1 the results were HSD17B inhib 4%.
For COc1ccc(-c2noc(CN(C(=O)c3ccc(OC(C)=O)cc3)C(C)C)n2)cc1OC the results were HSD17B inhib -3%.
`O=C(Nc1ccccc1C(F)(F)F)c1cc(S(=O)(=O)N2CCOCC2)ccc1F` gave HSD17B inhib 7%.
`CC(C)(C)c1ccc(-c2nnc3sc(-c4ccncc4)nn23)cc1` gave HSD17B inhib -3%.
For C#CCOCCCC(=O)O the results were HSD17B inhib 8%[11.4 µM].
`O=C(Nc1ccccc1)c1cccc(N2CCCC2=O)c1` gave HSD17B inhib 4%.
Screening O=C(C1CCC(C(=O)N2CCCCC2)CC1)N1CCCCC1 (stereo unspecified) returned HSD17B inhib -11%.
`N#Cc1nc(-c2ccc(F)cc2)oc1NCc1cccc2c1OCO2` gave HSD17B inhib 25µM*.
CC1CC(C)CN(c2nc3c(c(=O)[nH]c(=O)n3C)n2CCCSc2nc3ccccc3s2)C1 (stereo unspecified) was read as HSD17B inhib 17%.

Reprinted from above for reference:
N[C@@H](C(=O)O)c1ccc(C(=O)O)c(O)c1 was read as HSD17B inhib 32µM*.
Screening Cc1noc(C)c1S(=O)(=O)N1CCCC(C(=O)Nc2cccnc2)C1 (stereo unspecified) returned HSD17B inhib 1%.
For CC(=O)N1CCc2cc(Br)cc(S(=O)(=O)NCCN3CCCCC3C)c21 (stereo unspecified) the results were HSD17B inhib 12%.
For Cc1cccc(NC(=O)C2CCN(S(=O)(=O)c3cccc4cccnc34)CC2)c1 the results were HSD17B inhib 4%.
For COc1ccc(-c2noc(CN(C(=O)c3ccc(OC(C)=O)cc3)C(C)C)n2)cc1OC the results were HSD17B inhib -3%.
`O=C(Nc1ccccc1C(F)(F)F)c1cc(S(=O)(=O)N2CCOCC2)ccc1F` gave HSD17B inhib 7%.
`CC(C)(C)c1ccc(-c2nnc3sc(-c4ccncc4)nn23)cc1` gave HSD17B inhib -3%.
For C#CCOCCCC(=O)O the results were HSD17B inhib 8%[11.4 µM].
`O=C(Nc1ccccc1)c1cccc(N2CCCC2=O)c1` gave HSD17B inhib 4%.
Screening O=C(C1CCC(C(=O)N2CCCCC2)CC1)N1CCCCC1 (stereo unspecified) returned HSD17B inhib -11%.
`N#Cc1nc(-c2ccc(F)cc2)oc1NCc1cccc2c1OCO2` gave HSD17B inhib 25µM*.
CC1CC(C)CN(c2nc3c(c(=O)[nH]c(=O)n3C)n2CCCSc2nc3ccccc3s2)C1 (stereo unspecified) was read as HSD17B inhib 17%.

Later entries.
CCN1CCCC1CN(Cc1cc2cc(C)ccc2[nH]c1=O)C(=O)Nc1ccccc1OC (stereo unspecified) was read as HSD17B inhib -2%.
Cn1c(=O)n(C)c2cc(S(=O)(=O)N3CCOCC3)ccc21 was read as HSD17B inhib -5%.
CCOC(=O)c1c(C)c2c(n1C)CCC/C2=N\O was read as HSD17B inhib 3%.
c1ccc(Cn2c(Nn3cnnc3)nc3ccccc32)cc1 was read as HSD17B inhib 0%.
`CN(C)C(=O)c1ccc(-c2nc(N(C)C)c3ccccc3n2)cc1` gave HSD17B inhib -5%.
For N#CC(C(=O)OC1CCCCC1)c1nc2ccccc2nc1N1CCOCC1 (stereo unspecified) the results were HSD17B inhib 9%.
For COc1cccc(-c2nnc(SCC(=O)N3CCOCC3)o2)c1 the results were HSD17B inhib -5%.
`C=CCNC(=O)C1CC(=O)N(c2ccc(OCC(=O)NCc3ccccc3)cc2)C1` (stereo unspecified) gave HSD17B inhib 13%.
Screening COc1cc(Nc2cc(C)nc3ncnn23)cc(OC)c1 returned HSD17B inhib 1%.
COc1cccc(OC)c1C(=O)N1CCOCC1 was read as HSD17B inhib 20%.
Cc1ccc2c(c1)c1c3n2CCN(C(=O)C2CC2)C3CCC1 (stereo unspecified) was read as HSD17B inhib inconclusive.
For CCOC(=O)N(C)c1ccc(C(O)(C(F)(F)F)C(F)(F)F)cc1 the results were HSD17B inhib 1%.
For CC(C)(C)C1=C(C#N)C(c2cc3c(cc2Br)OCO3)C(C#N)=C(N)O1 (stereo unspecified) the results were HSD17B inhib 11%.
For CC(NC(=O)CNC(=O)OCc1ccccc1)C(=O)N1CC(O)CC1C(=O)OCc1ccccc1 (stereo unspecified) the results were HSD17B inhib 6%.
`Cc1cccc(-c2c3c(=O)n(C)c(=O)n(C)c3cn2C(C)C)c1` gave HSD17B inhib -10%.
O=C(CCNc1ccc(F)c(Cl)c1)c1ccco1 was read as HSD17B inhib -18%.
For O=C(Nc1nnc(CCN2CCCCC2)s1)C1CCCCC1 the results were HSD17B inhib -1%.
Screening O=C(NCc1ccco1)c1cc(-c2cccc(Cl)c2)on1 returned HSD17B inhib 2%.

Some of the compounds tested; rates above refer to the full screens.
